Screens from PubChem BioAssay.
DUX4 txn inh: inhibitors of DUX4-driven ZSCAN4 reporter expression, primary screen, 293T cells, Gaussia and Italica luciferase; 293T-iDUX4 ZSCAN4-Gaussia luciferase reporter, 24 h; active compounds read low; AID 1224904, 2016; activity change, negative = inhibition, % (no concentration beside the values); 0.8% of 37,000 active;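 active = -10% or lower and over 25 points stronger than a control reporter; inconclusive = -10% or lower with a smaller gap; inactive = above -10%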;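 also: 0% = median of neutral control wells and -100% = median of positive control wells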
DUX4 txn inh difference: also measured in DUX4 txn inh; calls as there; Gaussia minus Italica difference, %; measured here: selective DUX4 reporter inhibition;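 worked out from the two reporters; negative = selective loss of the DUX4 reporter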
DUX4 txn inh control: recorded beside DUX4 txn inh, whose call it bears; activity change, negative = inhibition, %; measured here: Italica tet-on control reporter;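 0 = neutral control and -100 = positive control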
* marks the source's active call; other numbers are inactive results; ? = inconclusive; nt = no result given.

SMILES	DUX4 txn inh	DUX4 txn inh difference	DUX4 txn inh control
COc1ccc(NC(=O)Nc2ccc3c(c2)C(=O)N([C@@H](C)CO)C[C@@H](C)[C@H](CN(C)Cc2ccncc2)OCCCC[C@@H](C)O3)cc1	-3	0	-2.1
CCCNC(=O)N1[C@@H](CO)[C@H](c2ccccc2)C12CN(C(=O)CC1CC1)C2	4	3	1.2
O=C(Cc1ccccc1)N1C[C@@H]2[C@H](c3ccccc31)[C@@H](CO)N2C(=O)Cc1ccccc1	-5	11	-15
O=C(C[C@H]1CC[C@H]2[C@@H](COC[C@H](O)CN2C(=O)Nc2ccccc2)O1)NCc1ccncn1	2	-6	8.1
CO[C@@H]1CN(C)C(=O)c2ccc(NC(=O)Nc3ccc(C(F)(F)F)cc3)cc2OC[C@@H](C)NC[C@@H]1C	-6	2	-7.3
O=C(c1cccc(F)c1)N1CC2(C1)[C@H](c1ccccc1)[C@@H](CO)N2C(=O)C1CCOCC1	-2	-2	0.3
CN1CCN(C(=O)C[C@H]2C[C@@H]3c4cc(NC(=O)Nc5ccc(C(F)(F)F)cc5)ccc4O[C@@H]3[C@H](CO)O2)CC1	3	-3	6.7
COc1ccc2c3c(n(C)c2c1)[C@@H](CO)N(C(=O)CN(C)C)CC31CCN(C(=O)C2CCC2)CC1	10	4	5.8
CC(C)[C@@H](C)NC(=O)N(C)C[C@@H]1OCc2ccccc2-c2ccccc2C(=O)N([C@H](C)CO)C[C@@H]1C	1	-7	7.8
O=C(C1CCOCC1)N1CC[C@@H]2[C@H]1c1cc(-c3ccc(F)cc3)ccc1N[C@@H]2CO	?	nt	nt
C[C@@H]1CN([C@H](C)CO)C(=O)CCCn2cc(nn2)CO[C@@H]1CN(C)S(=O)(=O)c1cn(C)cn1	2	0	2.2
COc1ccc2c3c([nH]c2c1)[C@H](CO)N(C(=O)Nc1cccc(F)c1)CC31CN(CC2CC2)C1	-7	3	-10
O=C(C[C@H]1CC[C@@H]2[C@H](COC[C@H](O)CN2Cc2cccc(C(F)(F)F)c2)O1)NCCc1ccncc1	-6	-7	0.6
CCN(C[C@@H]1[C@H](c2ccccc2)[C@@H](CO)N1CC1CC1)C(=O)c1ccccn1	-3	-1	-1.9
CCN1[C@@H]2Cn3c(ccc(-c4ccccc4F)c3=O)[C@H]1[C@@H](C(=O)NCc1ccccc1)[C@@H]2CO	-4	-7	2.7
CCCN1[C@H](C(=O)NCCCN(C)C)[C@@H](CO)[C@@H]2Cn3c(ccc(C4=CCCC4)c3=O)[C@@H]21	-5	-18	13
Cc1ccccc1-c1ccccc1[C@H]1[C@@H](C#N)N(C(=O)c2ccc(F)cc2)[C@@H]1CO	-2	2	-3.7
C[C@H](O)C#Cc1ccc2c(c1)O[C@@H](CN(C)C(=O)Cc1ccccn1)[C@@H](C)CN([C@@H](C)CO)S2(=O)=O	2	-3	4.7
C[C@@H]1CCCCO[C@H](CN(C)Cc2ccc(C(F)(F)F)cc2)[C@@H](C)CN([C@@H](C)CO)C(=O)c2cc(NC(=O)Nc3cccc4ccccc34)ccc2O1	-3	-4	1.4
C[C@H]1CN([C@@H](C)CO)C(=O)CCCn2nncc2CO[C@H]1CN(C)C(=O)C1CCCCC1	-6	-4	-2.1
COc1ccc(NC(=O)N2C[C@@H](O)COC[C@@H]3O[C@H](CC(=O)N4CCOCC4)CC[C@H]32)cc1	3	-4	6.8
C/C=C/c1ccc([C@H]2[C@@H](CNCC)N(c3nc(C)c(C)s3)[C@H]2CO)cc1	2	-3	4.5
C[C@@H]1CCCCO[C@@H](CN(C)Cc2ccc(Cl)c(Cl)c2)[C@@H](C)CN([C@H](C)CO)C(=O)c2cc(NC(=O)CCCCCC(=O)Nc3ccccc3N)ccc2O1	-1	-3	1.7
C[C@@H]1CN([C@H](C)CO)C(=O)c2cc(N(C)C)ccc2O[C@@H](C)CCCCO[C@H]1CN(C)Cc1ccc(C(=O)O)cc1	1	0	0.2
O=C(C[C@H]1CC[C@@H]2[C@H](COC[C@@H](O)CN2Cc2ccccc2)O1)N1CCOCC1	4	6	-1.8

Copied from above for reference:
SMILES	DUX4 txn inh	DUX4 txn inh difference	DUX4 txn inh control
CCCNC(=O)N1[C@@H](CO)[C@H](c2ccccc2)C12CN(C(=O)CC1CC1)C2	4	3	1.2
O=C(Cc1ccccc1)N1C[C@@H]2[C@H](c3ccccc31)[C@@H](CO)N2C(=O)Cc1ccccc1	-5	11	-15
O=C(C[C@H]1CC[C@H]2[C@@H](COC[C@H](O)CN2C(=O)Nc2ccccc2)O1)NCc1ccncn1	2	-6	8.1
CO[C@@H]1CN(C)C(=O)c2ccc(NC(=O)Nc3ccc(C(F)(F)F)cc3)cc2OC[C@@H](C)NC[C@@H]1C	-6	2	-7.3
O=C(c1cccc(F)c1)N1CC2(C1)[C@H](c1ccccc1)[C@@H](CO)N2C(=O)C1CCOCC1	-2	-2	0.3
CN1CCN(C(=O)C[C@H]2C[C@@H]3c4cc(NC(=O)Nc5ccc(C(F)(F)F)cc5)ccc4O[C@@H]3[C@H](CO)O2)CC1	3	-3	6.7
COc1ccc2c3c(n(C)c2c1)[C@@H](CO)N(C(=O)CN(C)C)CC31CCN(C(=O)C2CCC2)CC1	10	4	5.8
CC(C)[C@@H](C)NC(=O)N(C)C[C@@H]1OCc2ccccc2-c2ccccc2C(=O)N([C@H](C)CO)C[C@@H]1C	1	-7	7.8
O=C(C1CCOCC1)N1CC[C@@H]2[C@H]1c1cc(-c3ccc(F)cc3)ccc1N[C@@H]2CO	?	nt	nt
C[C@@H]1CN([C@H](C)CO)C(=O)CCCn2cc(nn2)CO[C@@H]1CN(C)S(=O)(=O)c1cn(C)cn1	2	0	2.2
COc1ccc2c3c([nH]c2c1)[C@H](CO)N(C(=O)Nc1cccc(F)c1)CC31CN(CC2CC2)C1	-7	3	-10
O=C(C[C@H]1CC[C@@H]2[C@H](COC[C@H](O)CN2Cc2cccc(C(F)(F)F)c2)O1)NCCc1ccncc1	-6	-7	0.6
CCN(C[C@@H]1[C@H](c2ccccc2)[C@@H](CO)N1CC1CC1)C(=O)c1ccccn1	-3	-1	-1.9

Additional records follow:
SMILES	DUX4 txn inh	DUX4 txn inh difference	DUX4 txn inh control
O=C(Cc1ccncc1)NCC[C@@H]1CC[C@H](NC(=O)C2CCOCC2)[C@H](CO)O1	11	12	-0.6
COc1ccc(-c2ccc([C@@H]3[C@@H](C#N)N(C(=O)C4CC4)[C@H]3CO)cc2)cc1	0	-4	4.2
C[C@@H](NC(=O)C[C@H]1CC[C@H]2[C@@H](COC[C@H](O)CN2C(=O)Nc2cccc(Cl)c2)O1)c1ccccc1	-3	-4	1.0
COCC#Cc1ccc([C@@H]2[C@H]3CN(C(=O)Nc4ccccc4F)CC(=O)N3[C@H]2CO)cc1	2	2	0.7
CCNC(=O)C[C@@H]1CC[C@H]2[C@@H](COC[C@H](O)CN2C(=O)c2cccnc2)O1	12	10	2.5
CO[C@@H]1CN(C)C(=O)c2cc(NC(=O)c3ccc(F)cc3)ccc2OC[C@H](C)NC[C@@H]1C	-1	3	-3.7
O=C(C1CCC1)N1CC(=O)N2[C@H](CO)[C@H](c3ccc(Br)cc3)[C@@H]2C1	3	1	1.8
C[C@@H]1CN([C@H](C)CO)C(=O)c2ccccc2-c2ccccc2CO[C@H]1CN(C)S(=O)(=O)c1ccccc1F	-1	3	-3.5
C[C@@H]1CN([C@@H](C)CO)C(=O)c2ccccc2-c2ccccc2CO[C@@H]1CN(C)C(=O)Nc1ccnc(N2CCOCC2)c1	-4	1	-4.4
C[C@H]1CC(=O)NCC/C=C\C[C@@H](c2cccc(Cl)c2)NC1=O	-1	-6	4.9
CN1C(=O)c2cc(NC(=O)C3CCOCC3)ccc2OC[C@H]2O[C@H](CC(=O)NCCc3ccncc3)CC[C@@H]21	-1	0	-0.6
O=C(C[C@@H]1CC[C@H]2[C@@H](COC[C@H](O)CN2Cc2cccc(Cl)c2)O1)NCC1CCCCC1	?	nt	nt
C[C@@H]1CCCCO[C@@H](CN(C)Cc2ccc(C(F)(F)F)cc2)[C@H](C)CN([C@H](C)CO)C(=O)c2cc(NC(=O)CCCN(C)C)ccc2O1	3	4	-0.6
COc1ccc([C@@H]2C/C=C\C[C@@H](c3ccc4c(c3)OCO4)NC(=O)[C@@H](c3ccccc3)CC(=O)N2)c(OC)c1	2	2	-0.4
O=C(C1CCOCC1)N1CC[C@@H]2[C@H](CO)Nc3ccc(-c4cccc(F)c4)cc3[C@@H]21	-5	-3	-2.5
C[C@@H](NC(=O)C[C@H]1C[C@H]2c3cc(NS(=O)(=O)c4ccc(F)cc4)ccc3O[C@H]2[C@@H](CO)O1)c1ccccc1	-4	4	-7.4
C[C@H]1CN([C@@H](C)CO)S(=O)(=O)c2ccc(C3=CCCC3)cc2O[C@@H]1CN(C)CC1CCOCC1	5	-2	7.1
OC[C@H]1[C@H]2c3ccccc3NC[C@H]2N1CC1CCOCC1	-2	0	-1.3
COCCNC(=O)c1cc2c(c(-c3cccc(C4=CCCCC4)c3)n1)[C@H](CCO)N([S@@](=O)C(C)(C)C)C2	-7	-3	-3.2
CO[C@@H]1CN(C)C(=O)c2cc(NC(=O)C3CC3)ccc2OC[C@@H](C)N(C(=O)c2ccncc2)C[C@H]1C	-1	-3	2.0
C[C@@H](NC(=O)C[C@H]1C[C@H]2c3cc(NC(=O)CN(C)C)ccc3O[C@H]2[C@@H](CO)O1)c1ccccc1	8	9	-1.2
COc1ccccc1-c1ccc2c(c1)[C@H]1[C@H](CCN1S(=O)(=O)c1cn(C)cn1)[C@@H](CO)N2	8	6	2.3
CN1CCN(C(=O)C[C@@H]2CC[C@@H](NC(=O)c3ccc4c(c3)OCO4)[C@H](CO)O2)CC1	2	-2	4.6
CC(C)(C)[S@](=O)N1Cc2cc(C(=O)NCc3ccccn3)nc(-c3cccc(-c4ccccc4F)c3)c2[C@@H]1CCO	-6	-4	-2.0
CC(C)COC(=O)N(C)C[C@H]1OCc2ccccc2-c2ccccc2C(=O)N([C@@H](C)CO)C[C@H]1C	-4	-10	5.7
SMILES	DUX4 txn inh	DUX4 txn inh difference	DUX4 txn inh control
COc1ccc(S(=O)(=O)Nc2ccc3c(c2)C(=O)N([C@H](C)CO)C[C@H](C)[C@@H](CN(C)Cc2ccncc2)O3)cc1	-1	-1	0.6
COc1cccc(CN2[C@H](CO)[C@@H](c3ccccc3)C23CN(C(=O)C2CCCCC2)C3)c1	?	nt	nt
C[C@@H](NC(=O)C[C@H]1C[C@H]2c3cc(NC(=O)c4cccnc4)ccc3O[C@H]2[C@H](CO)O1)c1ccccc1	?	nt	nt
COc1ccc(OC(=O)N(C)C[C@H]2OCc3ccccc3-c3ccccc3C(=O)N([C@H](C)CO)C[C@H]2C)cc1	14	18	-4.8
O=C(C[C@@H]1CC[C@@H]2[C@H](COC[C@H](O)CN2S(=O)(=O)c2cccc(Cl)c2)O1)NC1CCCC1	3	-2	4.7
CO[C@@H](CN(C)Cc1nccs1)[C@@H](C)CN([C@H](C)CO)S(=O)(=O)c1ccc(C)cc1	-2	-2	-0.7
CN(C)CC(=O)N[C@H]1C=C[C@@H](CC(=O)NCCN2CCCCC2)O[C@@H]1CO	6	2	4.0
CN1c2ccc(-c3ccccc3)cc2[C@H]2[C@H](CCN2C(=O)c2ccc3c(c2)OCO3)[C@H]1CO	?	nt	nt
N#C[C@H]1[C@H](c2ccc(C#Cc3ccc(F)cc3)cc2)[C@H](CO)N1C(=O)C1CC1	-2	-3	1.2
O=C(c1cccc(F)c1)N1CC(=O)N2[C@H](C1)[C@@H](c1ccc(C#Cc3ccc(F)cc3)cc1)[C@@H]2CO	-1	6	-7.5
CCC(=O)N1[C@H](CO)[C@H](c2ccc(-c3cccc(F)c3)cc2)[C@@H]1CN(C)C(C)=O	1	0	1.8
C[C@@H]1CN([C@@H](C)CO)C(=O)Cc2cc(NS(=O)(=O)c3cccs3)ccc2O[C@H]1CN(C)CC1CCCCC1	-4	-3	-0.5
C/C=C/c1cnc2c(c1)C(=O)N([C@@H](C)CO)C[C@@H](C)[C@H](CN(C)C(=O)Nc1cccc(OC)c1)O2	0	-2	2.0
CCNC(=O)C[C@@H]1CC[C@H]2[C@@H](COc3ccc(NS(C)(=O)=O)cc3C(=O)N2C)O1	-2	-3	1.0
CCC(=O)N1C[C@@H](C)[C@H](OC)CN(C)C(=O)c2cc(NC(=O)Nc3ccc(Cl)cc3)ccc2OC[C@@H]1C	-7	4	-10
CN(C)CC#Cc1ccc([C@@H]2[C@@H](CO)N3CCCCN(C(=O)NC4CCCC4)C[C@@H]23)cc1	12	2	9.7
C[C@H](CO)N1C[C@H](C)[C@H](CN(C)Cc2ccc(-c3ccccc3)cc2)Oc2c(NS(C)(=O)=O)cccc2C1=O	-1	-3	1.7
COc1ccc(CN2CC3(CN(C(=O)Cc4ccccc4)C3)c3c([nH]c4cc(OC)ccc34)[C@@H]2CO)cc1	?	nt	nt
O=C(N[C@H]1CC[C@H](CCNS(=O)(=O)c2ccc(F)cc2)O[C@@H]1CO)C1CCC1	-4	-7	3.3
Cc1noc(C)c1NC(=O)N(C)C[C@@H]1Oc2ccc(NC(=O)CCN3CCOCC3)cc2CC(=O)N([C@@H](C)CO)C[C@H]1C	7	5	1.9
C/C=C/c1ccc([C@H]2[C@@H](CO)N(Cc3ccccn3)[C@H]2CNC(=O)CC)cc1	-6	-4	-1.4
CC(=O)N1CC[C@@H]2[C@@H](CO)N(C)c3ccc(-c4ccccc4)cc3[C@@H]21	22	12	9.8
CC(C)[C@@H](C)NC(=O)N(C)C[C@H]1OCc2ccccc2-c2ccccc2C(=O)N([C@@H](C)CO)C[C@@H]1C	10	-5	15
COc1cccc(CNC(=O)C[C@@H]2C=C[C@@H](NC(=O)C3CCOCC3)[C@@H](CO)O2)c1	7	8	-0.6
CO[C@@H](CN(C)S(=O)(=O)c1ccc(F)cc1)[C@@H](C)CN(Cc1ccccc1Cl)[C@H](C)CO	-1	-2	1.4

Some of the compounds tested; count on the stated rates, not on these rows.
